GCN5L2 inh – inhibitors of human GCN5L2 histone acetyltransferase; AID 504327; hit rate 0.21% among 390,000; GCN5L2 HAT assay, ThioGlo1 CoA-SH fluorescence; Potency, µM (highest dose often 58.9 µM), for the others: at the highest dose activity change, negative = inhibition, actives largely listed as inhibitors; Q92830
Target sequence (Q92830 whole entry, looked up): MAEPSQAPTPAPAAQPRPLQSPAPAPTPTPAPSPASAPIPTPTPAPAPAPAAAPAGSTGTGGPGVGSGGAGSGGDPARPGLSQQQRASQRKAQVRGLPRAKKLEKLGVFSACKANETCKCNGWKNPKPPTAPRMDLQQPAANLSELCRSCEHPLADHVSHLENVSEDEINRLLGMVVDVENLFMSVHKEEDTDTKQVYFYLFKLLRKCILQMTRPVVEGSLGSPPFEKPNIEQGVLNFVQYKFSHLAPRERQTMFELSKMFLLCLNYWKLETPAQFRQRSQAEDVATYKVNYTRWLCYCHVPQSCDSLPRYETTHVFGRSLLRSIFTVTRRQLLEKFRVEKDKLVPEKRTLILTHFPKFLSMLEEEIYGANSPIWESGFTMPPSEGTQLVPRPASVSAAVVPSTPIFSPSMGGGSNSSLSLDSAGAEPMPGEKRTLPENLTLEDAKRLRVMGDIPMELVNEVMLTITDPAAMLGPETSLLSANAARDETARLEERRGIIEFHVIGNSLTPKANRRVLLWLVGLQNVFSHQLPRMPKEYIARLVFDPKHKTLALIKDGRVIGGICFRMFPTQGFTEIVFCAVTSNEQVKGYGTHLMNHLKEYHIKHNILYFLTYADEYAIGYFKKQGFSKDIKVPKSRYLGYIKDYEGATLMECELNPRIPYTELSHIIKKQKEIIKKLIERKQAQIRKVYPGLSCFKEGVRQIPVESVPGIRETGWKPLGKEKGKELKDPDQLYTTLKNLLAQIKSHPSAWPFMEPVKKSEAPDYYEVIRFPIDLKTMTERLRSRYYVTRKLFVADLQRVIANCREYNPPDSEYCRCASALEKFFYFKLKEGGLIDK
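GCN5L2 (20 nM) in 50mM HEPES pH 7.5, 0.1mM EDTA, 0.01% Tween-20 preincubated 15 min with compounds at room temperature. Reaction started with H3(1-25) 75uM, acetyl-CoA 70uM, ThioGlo1 50uM; CoA-thiol fluorescence (Ex340/Em540) read at 0 and 20 min.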
FEN1 inh – human FEN1 inhibition; P39748; Recombinant FEN1 flap cleavage, fluorescence, 15 min; Potency, µM (doses to about 114 µM), for inactives: at the top dose activity change, negative = inhibition, usual class: inhibitors; hit rate 0.35% among 390,000; note: nearly all actives have a fitted effect of over 65% in size
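Compounds are tested as a concentration series against 10 nM FEN1; after a 15 min room-temperature preincubation, 50 nM substrate starts cleavage, with plate reads at 0 and 15 min. Normalized responses are fitted by a Hill equation.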
* hit, by the source's call; u = inconclusive; x = not tested or not shown; & = joins results of further samples. Calls come from the whole dose curve; as a rule, active = well fitted curve in the direction sought with a large enough effect; inconclusive = small, poorly fitted or top-dose-only effect, or another doubt; inactive = no such curve, though single readings can be large; an effect the other way counts as inactive or inconclusive. % is set by controls: 0 for no effect and ±100 for the full control effect; potency is the fitted concentration of half-maximal effect.

Results follow in this order: GCN5L2 inh, FEN1 inh
O=C(NCCC1=CCCCC1)c1ccc2c(c1)N(Cc1ccccc1F)C(=O)c1ccccc1S2=O (configuration not stated)
→ -6%, 11%
Cn1c(=O)n(CC#N)c2ccccc21
→ -11%, -10%
CSc1nc2sc3c(c2c(=O)[nH]1)CCC(C)C3 (configuration not stated)
→ 8%, 12%
O=S1(=O)CCN(Cc2csc(-c3cccs3)n2)CC1
→ -5%, 8%
O=C(NCc1nc2ccccc2[nH]1)C1=C[C@H](C2CC2)C[C@H](OCc2ccc(CO)cc2)O1
→ -8%, -4%
COc1cc(NC(=O)Cn2ccn(-c3cc(C)cc(C)c3)c(=O)c2=O)cc(OC)c1
→ -2%, 4%
C=C1CN(Cc2ccccc2)S(=O)(=O)c2ccccc21
→ -6%, u
O=C(CCCN1C(=O)/C(=C/c2cccc(Br)c2)SC1=S)N1CCOCC1
→ 0%, -9%
CC1CCN(CCCCOc2ccccc2-c2ccccc2)CC1
→ -3%, 2%
CN(CC(=O)Nc1ccccc1Br)C(=O)CN1CCN(c2ccccc2Cl)CC1
→ 1%, -3%
CC(C)N(C)CCOC(=O)c1ccc2c(c1)OCCO2
→ -2%, -13%
O=C(NC1CC1)c1ccc(CS(=O)(=O)c2c(Cl)cccc2Cl)o1
→ -2%, -7%
COc1ccc(S(=O)(=O)Nc2ccc3c(c2)CC(=O)N([C@@H](C)CO)C[C@H](C)[C@@H](CN(C)S(=O)(=O)c2ccc(F)cc2)O3)cc1
→ -1%, 1%
COc1ccc(OC)c(NC(=O)C2CC(=O)N(Cc3ccco3)C2)c1 (configuration not stated)
→ -5%, -2%
CSc1ncccc1C(=O)N1CCCC(N2CCN(c3ccccc3F)CC2)C1 (configuration not stated)
→ 4%, -11%
C=CC(C)(O)CCCC(C)CCCC(C)CCCC(C)C (configuration not stated)
→ -9%&-17%, 1%
CCOC(=O)c1c(NC(=O)CCC(=O)O)sc2c1CC(C)(C)OC2
→ -6%, 1%
O=C(CCl)Nc1ccccc1C(=O)Nc1ccc2c(c1)OCO2
→ -5%, -11%
CCc1nn(C(C)C(=O)NCc2cccc(OC)c2)c(=O)c2cc3occc3n12 (configuration not stated)
→ 0%, 7%
CC(C)(C)c1ccc(/C=C/C(=O)N2CCCCC2)cc1
→ 3%, 7%
Cc1c(C(=O)Nc2ccccn2)oc2ccccc12
→ 1%, -1%
CCC(c1nnnn1CCc1ccccc1)N1CCN(C(=O)c2ccco2)CC1 (configuration not stated)
→ -4%, -11%
CC(C)(C)N(Cc1ccccc1)C(=O)COC(=O)[C@@H]1CCCN1C(=O)c1cccs1
→ -10%, 1%
Cc1ccc(C)c(N2CCN(C(=O)c3cccn4c(=O)c5sccc5nc34)CC2)c1
→ -10%, -15%
CCc1c(C)sc2c1CCN(Cc1ccc(C#N)cc1)C2c1ccccc1 (configuration not stated)
→ -14%, -7%
Cc1ccc(C(C)C)c(OCC(=O)Nc2nc3c(s2)CCCC3)c1
→ -10%, 5%
O=C(O)c1cc2nc3c(c(C(F)(F)F)n2n1)CCc1ccccc1-3
→ -7%, -5%
O=C(O)CCN1C(=O)c2ccc(Oc3ccc4c(c3)C(=O)N(CCC(=O)O)C4=O)cc2C1=O
→ 1%, -3%
O=C(CN1C(=O)c2ccccc2C1=O)NCc1ccc(N2CCOCC2)cc1
→ 0%, -12%
O=C(NC1CC1)C1CCCN1C(=O)NC1CCCCC1 (configuration not stated)
→ -2%, 19%

An excerpt from above in order of the GCN5L2 inh value, smallest number first.
Structure,GCN5L2 inh
O=C(O)c1cc2nc3c(c(C(F)(F)F)n2n1)CCc1ccccc1-3,-7%
CCOC(=O)c1c(NC(=O)CCC(=O)O)sc2c1CC(C)(C)OC2,-6%
CCc1nn(C(C)C(=O)NCc2cccc(OC)c2)c(=O)c2cc3occc3n12 (configuration not stated),0%

The list continues.
Results follow in this order: GCN5L2 inh, FEN1 inh
O=C(COC(=O)c1cc[n+]([O-])cc1)Nc1ccc([N+](=O)[O-])cc1
→ -5%, 1%
Cc1cc([N+](=O)[O-])ccc1NC(=O)CCC(=O)N1CCCCCC1
→ -4%, -3%
Cc1cc(Br)ccc1NC(=O)CNC(=O)CN(C)Cc1nc2ccccc2c(=O)[nH]1
→ 3%, -2%
CN(c1ccccc1C(=O)O)S(=O)(=O)c1ccc2c3c(cccc13)C(=O)N2
→ -10%, u
COc1ccc(-n2c(-c3ccco3)nc3c(cnn3-c3ccc(Cl)cc3)c2=O)cc1
→ -12%, 0%
CCCCNc1c(-c2ccc(OC)c(Sc3ccc(OC)cc3)c2)nc2ccc(Cl)cn12
→ -18%, -22%
O=C(OCCNc1nc(-c2ccccc2)nc2ccccc12)c1cccnc1
→ -1%, -1%
COc1ccc(C(=O)Nc2nc3nccc(-c4ccccc4)n3n2)cc1
→ -3%, -1%
Cc1cc(C)cc(C(=O)NCC(=O)NNC(=O)CSc2ccccc2F)c1
→ -3%, -11%
CCOC(=O)C1(CCc2ccccc2)CCN(C(=O)Cc2nonc2C)CC1
→ -1%, 6%
Cc1ccc(C(=O)Nc2nnc(S(=O)(=O)N(C)Cc3ccco3)s2)cc1
→ -5%, 0%
Cc1c(-c2ccccc2)c(=O)oc2c(CN3CCN(C)CC3)c(O)ccc12
→ u, 1%
CC(=O)c1ccc(N2CCN(C(=O)c3cc(-c4ccncc4)nc4ccc(Cl)cc34)CC2)cc1
→ -2%, -4%
Cc1cc2oc(=O)c(CC(=O)NCCc3ccccc3)c(C)c2c2occ(C(C)(C)C)c12
→ -8%, 0%
CCOc1ccccc1-c1nnc(CS(=O)(=O)c2ccccc2)o1
→ 0%, -1%
CC(=O)c1cccc(NC(=O)N2CCCC2C(=O)NCc2ccc(F)cc2)c1 (configuration not stated)
→ 0%, -3%
O=C(/C=C/c1ccccc1)N1CCN(Cc2cc(=O)n3nc(-c4ccccc4F)sc3n2)CC1
→ 7%, 2%
Oc1cccc(C=NCc2ccccc2)c1
→ 1%, -1%
CC(=O)c1cccc(NC(=O)CC2S/C(=N/N=C/c3ccccc3)NC2=O)c1 (configuration not stated)
→ -13%, -16%
Cc1ccc(C)c(CNS(=O)(=O)c2c(C(=O)N3CCCC3)c(C)n(C)c2C)c1
→ -5%, 17%
O=C(CN1CCN(Cc2ccc3c(c2)OCO3)CC1)N1c2ccccc2Sc2ccccc21
→ -9%, x
O=C(CSc1nc2ccccc2o1)N1CCN(c2ccc(Cl)cc2)CC1
→ 2%, -13%
COc1cc(NS(=O)(=O)c2cc(Br)cc3c2N(C(=O)C2CC2)CC3)cc(OC)c1
→ 0%, -4%
CCN1CCCC1CNS(=O)(=O)c1cccc(C(F)(F)F)c1 (configuration not stated)
→ -12%, 6%
CN(C)c1nc(N(C)C)nc(N(C#N)CCOc2ccccc2)n1
→ -6%, -15%
Cc1ccc(N2CC(C(=O)Nc3ccncc3)CC2=O)cc1 (configuration not stated)
→ 3%, -14%
O=C(NCCN1CCOCC1)c1cc(-c2ccc(Cl)c(Cl)c2)on1
→ -4%, 2%
COc1ccc(C2=NC(=O)/C(=C\c3cc(OC)c(OC)c(OC)c3)O2)cc1
→ u, -2%
CCOC(=O)N1CCc2c(sc3c2c(=O)n(-c2ccc(Cl)cc2)c(=O)n3Cc2cccc(C)c2)C1
→ -1%, 3%
COc1cc(NC(=O)c2ccco2)c(OC)cc1NC(=O)Nc1cccc(Cl)c1
→ 1%, 3%
COc1cccc(/C=C/C(=O)NCCc2ccc3c(c2)OCCO3)c1
→ -7%, -3%
Cn1nccc1C(=O)Nc1nnc(C2CC2)s1
→ -22%, 10%
O=C1NC[C@@H](c2ccccc2)OC(=O)[C@@H](Cc2ccc(F)cc2)CC/C=C/C[C@H]1CC(=O)N(CCO)Cc1ccccc1
→ -13%, 3%
O=C(CSc1n[nH]c(-c2cccs2)n1)N1CCCc2ccccc21
→ -5%, -5%
Cn1c(=O)[nH]c(=O)c2c1nc(NCc1ccco1)n2CCCc1ccccc1
→ -1%, -4%
COc1cc2c(cc1OC)CN(Cc1cc(=O)oc3cc(C)c(C)cc13)CC2
→ -14%, 2%
COc1ccc(NC(=O)Cc2ccc(Cl)cc2)cc1S(=O)(=O)N1CCCCC1
→ -12%, -17%
CCC(=O)NC(=S)Nc1cccc(NC(=O)c2ccccc2C)c1
→ -3%, -14%
CC1CCC(C(=O)NC(C(=O)NCCCN2CCOCC2)C(C)C)CC1 (configuration not stated)
→ -6%, -5%
CCOc1nc(NC(C)C)nc(NC(C)C)n1
→ -11%, 0%
Cc1ccc(N)c([N+](=O)[O-])c1
→ -5%, 14%
Cc1ccc(S(=O)(=O)N2CCCCC2)cc1NC(=O)c1ccccc1Cl
→ -2%, -1%
O=C(CN1CCN(CCN2C(=O)c3cccc4cccc(c34)C2=O)CC1)c1ccc(F)cc1
→ -2%, u
COc1ccc(C(=O)C(c2ccccc2)N2CCOCC2)cc1 (configuration not stated)
→ -3%, -5%
CC(C)CN(C(=O)c1cccs1)C1CCS(=O)(=O)C1 (configuration not stated)
→ 0%, 7%
CC(C)(C)c1ccc(S(=O)(=O)Nc2ccccn2)cc1
→ 0%, 2%
COc1cc(C(=O)N2CCN(c3ccc(Nc4ccccc4)nn3)CC2)cc(OC)c1OC
→ -1%, 3%
O=c1c2c3nc4ccccc4nc3n(CC3CCCO3)c2ncn1CCc1ccccc1 (configuration not stated)
→ 4%, -1%
COc1ccc(NC(=O)c2cccc(N3C(=O)c4ccc(C(=O)Nc5ccc(OC)c(O)c5)cc4C3=O)c2)cc1O
→ 1%, 16%
C#CCOCCOCCOCCNc1nc(N2CCN(C(=O)[C@H](CCCCN)n3cc(CN)nn3)CC2)nc(N2CCN(C(=O)[C@H](CCCCN)n3cc(CN)nn3)CC2)n1
→ 2%, -13%
CCOC(=O)c1c(NC(=O)c2cc(-c3cccc(Cl)c3)on2)sc(C(C)=O)c1C
→ -3%, -5%
Cc1oncc1-c1csc(-c2ccccc2Cl)n1
→ -5%, -17%
CCN(CC)S(=O)(=O)c1ccc(-c2csc(C)n2)cc1
→ -2%, -12%
O=c1c2ccccc2nc(SCc2ccc([N+](=O)[O-])cc2)n1-c1ccc(Cl)cc1
→ 2%, 2%
CC(C)(CC(=O)NCc1ccc(Cl)cc1Cl)CC1=NS(=O)(=O)c2ccccc2N1
→ -3%, 1%
Cc1cc(C)cc(NC(=O)CCC(=O)Nc2cc(C)on2)c1
→ 0%, 6%
O=C(COC(=O)C12CC3CC(CC(Br)(C3)C1)C2)Nc1cccc(S(=O)(=O)N2CCOCC2)c1
→ -11%, -33%
Cc1nn(Cc2ccc(Cl)c(Cl)c2)c(C)c1NC(=O)c1cc(-c2ccco2)on1
→ -17%, 2%
COc1ccc(C(=O)NNC(=O)c2ccccc2[N+](=O)[O-])cc1Br
→ 2%, -6%
COc1cccc(-c2nc3ccc(C(=O)N4CCCC(O)C4)cc3o2)c1 (configuration not stated)
→ -5%, -2%

The list continues.
Results follow in this order: GCN5L2 inh, FEN1 inh
Cc1ncoc1C(=O)N1CCCC(C(=O)c2cccc(OC(C)C)c2)C1 (configuration not stated)
→ 2%, 2%
Cc1ccc(C)c(C(=O)COC(=O)Cn2[nH]c(=O)c3ccccc3c2=O)c1
→ 0%, -5%
CO[C@@]1(NC(=O)Cc2cccs2)C(=O)N2C(C(=O)O)=C(COC(N)=O)CSC21 (some centres not stated)
→ -12%, x
O=C(CCc1ccccc1)NC(NC(=S)Nc1cccc(Cl)c1)C(Cl)(Cl)Cl (configuration not stated)
→ 0%, -5%
COc1cccc(NC(=O)Cn2nnc(C(=O)NCc3ccc4c(c3)OCO4)c2N)c1
→ 3%&-4%, 15%&11%
CC1CCN(C(=O)COC(=O)c2cc(Cl)c3c(c2)OCO3)CC1
→ -13%, 0%
Cc1ccc(-c2cn3cccnc3n2)cc1NC(=O)c1c(-c2ccccc2Cl)noc1C
→ -24%, 1%
COc1ccc(S(=O)(=O)Nc2nc3c(s2)C(=O)CC(C)(C)C3)cc1
→ -8%, 4%
CC(C)(C)OC(=O)c1c(N)n(CCCN2CCCC2=O)c2nc3ccccc3nc12
→ -16%, 2%
COc1ccc(NC(=O)c2cnc(N3CCCCC3)c3ccccc23)cc1Cl
→ -5%, 0%
Cc1cc(C)c(/C=C/c2onc(C)c2S(=O)(=O)N2CCC(C(=O)NCCc3ccccc3)CC2)c(C)c1
→ -4%, 7%
COc1cc(OC)c(CN2CCC(CO)(CCOc3ccccc3)CC2)c(OC)c1
→ 16%, -17%
C/C(=N/NC(=O)c1ccoc1C)c1ccc(NC(=O)C2CCCC2)cc1
→ 1%, 3%
COc1ccc(OCc2nnc(SCC(=O)N(C)Cc3ccccc3)n2N)cc1
→ -2%, -1%
CCN(CC)C(=O)[C@H]1C[C@H](CC(=O)NCCCN(C)C)C(=O)N2CCc3c([nH]c4cc(-c5ccco5)ccc34)[C@]12C
→ -9%, -3%

Single records, as listed above. Screens in order: GCN5L2 inh | FEN1 inh
Listed for Cc1cc(C)c(/C=C/c2onc(C)c2S(=O)(=O)N2CCC(C(=O)NCCc3ccccc3)CC2)c(C)c1 : -4% | 7%
Listed for Cc1ncoc1C(=O)N1CCCC(C(=O)c2cccc(OC(C)C)c2)C1 (configuration not stated) : 2% | 2%
Listed for COc1ccc(S(=O)(=O)Nc2nc3c(s2)C(=O)CC(C)(C)C3)cc1 : -8% | 4%
Listed for Cc1ccc(-c2cn3cccnc3n2)cc1NC(=O)c1c(-c2ccccc2Cl)noc1C : -24% | 1%

Screens: PubChem BioAssay, National Center for Advancing Translational Sciences (NCATS)

Some of the compounds tested, and most or all hits are left out here.
